Bioassay records: PubChem, SRMLSC
H5N1 antiviral = antiviral screen in MDCK cells, H5N1 avian flu | cytopathic effect, luminescence, 72 h; hits give high values; no value below 0 was filed and about half of the inactive calls have no number; reference of the scale not given here | inhibition, % at 50 µM | actives 0.07% (n = 96,000); in the data active means inhibition above about 25%
Active calls of the source: *; i = inactive. Not all compounds are listed, so the mix of outcomes need not match the whole.

structure | H5N1 antiviral
CSc1cnn(-c2ccccc2)c(=O)c1SC | i
O=C(NC(=S)NCc1ccccc1)c1ccccc1F | i
Cc1ccc(S(=O)(=O)NC2CCCC2)cc1C | i
CCOc1ccccc1NC(=O)COn1nnc2ccccc21 | i
CN(CC(=O)N1CCN(c2ccccn2)CC1)S(=O)(=O)c1ccc(Br)cc1 | i
CC(NCc1ccc(N(C)C)cc1)C1CC2CCC1C2 (stereo not drawn) | 0.2
Cc1ccc(S(=O)(=O)NC(=O)Nc2ccc(Cl)cn2)cc1 | i
Nc1nnnn1/N=C/c1ccccc1C(F)(F)F | i
CCCCC(=O)NCCc1cc2ccc(OC)cc2[nH]c1=O | i
Cc1nnc2n1N=CC=C(C(C)(C)C)S2 | 0.3
COc1cc(N2C(=O)c3ccccc3C2=O)c(Cl)cc1C(=O)OCC(=O)NCc1ccco1 | 1.0
O=c1c2oc3ccccc3c2ncn1Cc1ccccc1Cl | i
CCCNC(=O)c1ccccc1C(=O)NCCC | i
O=C(Nc1ccc2nsnc2c1)c1ccc2c(c1)OCO2 | i
Cc1ccccc1-c1nnn(CC(=O)N2CCN(S(=O)(=O)c3ccc(Cl)cc3)CC2)n1 | 4.3

Quoted from the listing:
For H5N1 antiviral, Cc1nnc2n1N=CC=C(C(C)(C)C)S2 has 0.3
For H5N1 antiviral, Cc1ccccc1-c1nnn(CC(=O)N2CCN(S(=O)(=O)c3ccc(Cl)cc3)CC2)n1 has 4.3

Following part:
structure | H5N1 antiviral
Cc1cc(C)c2c(n1)nn1c(NCCOCCO)cc(C)nc21 | 0.1
CC(C)(C)OC(=O)NCCCCCc1nnc(SCC(=O)Nc2cccc(Cl)c2)o1 | i
Cc1nn(CC(=O)N(C)C)c(=O)c2ccccc12 | i
Cc1ccc2c(CC(=O)O)coc2c1C | 0.4
O=c1[nH]c2ccc(Cl)cc2c(-c2ccccc2)c1N1CCOCC1 | 4.7
Cc1ccc2cc(CN(C(=O)C3CCCO3)C3CCCCC3)c(=O)[nH]c2c1 (stereo not drawn) | i
Cc1ccc(C)n1/N=C1/NC(=O)CS1 | 1.2
O=C(O)CSc1nc(SCc2ccccc2Cl)nc2c1CCCC2 | i
Clc1ccc(OCCn2ccnc2)c2ccccc12 | i
O=C(Nc1ccc(S(=O)(=O)N2CCOCC2)cc1)c1cccs1 | 0.5
CCC(=O)NCCc1cc2ccc(C)c(C)c2[nH]c1=O | 0.3
O=S(=O)(NC1CCCCC1)c1ccc(S(=O)(=O)N2CCN3CCCC3C2)cc1 (stereo not drawn) | 4.0
CCN(CC)c1ccc(NC(=O)c2cccnc2)c(C)c1 | i
O=C(OCc1ccccn1)c1ccc(COc2ccccc2Cl)o1 | i
Fc1ccc(-c2nnc(CN3CCC(c4nc5ccccc5s4)CC3)o2)cc1 | 0.1
CCC(O)CNc1nc(-n2nc(C)cc2C)nc2sc3c(c12)CC(C)(C)OC3 (stereo not drawn) | 0.5
COCCNC(=O)Cn1cnc2c1c(=O)n(C)c(=O)n2C | i
CCOC(=O)c1cnc2c(C#N)c(C)nn2c1C | 0.4
Cc1ccc2nc(C)cc(C(=O)OCC(=O)c3ccc(Cl)c([N+](=O)[O-])c3)c2c1 | 0.8
Cc1cccc(OCCC(=O)NCC(c2ccccc2)N(C)C)c1 (stereo not drawn) | i
Cc1ccc(-n2ccc(=O)c(C(=O)O)n2)cc1 | 0.3
Nc1nc(SCC(=O)NCc2ccco2)[nH]c(=O)c1-c1ccccc1 | 2.2
CSC1=C(C#N)C(c2ccccc2C)C(C#N)=C(N)N1 (stereo not drawn) | i
COc1ccc(C2(C(=O)NCCN3CCOCC3)CCOCC2)cc1 | 0.9
O=C(Nc1ccc2nc(-c3cccnc3)[nH]c2c1)c1ccccc1F | i
CC1=C(C(=O)OC2CCCCC2)C(c2ccc(C)o2)C2=C(CC(C)(C)CC2=O)N1 (stereo not drawn) | i
O=C(Nc1ccc2c(c1)OCCO2)C1CCN(C(=O)c2ccc(F)cc2)CC1 | 0.5
CCN1CCN(CC(O)COCc2ccccc2)CC1 (stereo not drawn) | i
CCC(C)(C)n1nnnc1CN1CCC(c2nc3ccc(C)cc3[nH]2)CC1 | 1.0
CCOC(=O)c1c(C)n(CC(O)c2ccccc2)c2ccc(O)cc12 (stereo not drawn) | 4.0
CCOC(=O)Cc1cc(=O)[nH]c(Nc2nc3ccccc3o2)n1 | i
COc1ccccc1CCN1C(=S)NC(C)(C)CC1(C)O (stereo not drawn) | 0.5
O=C(Nc1ccc(Cl)cc1)NC1CCCCC1Cc1ccco1 (stereo not drawn) | 1.1
COc1cc(OC)c(C2Oc3nc(SC)nnc3-c3ccccc3N2C(C)=O)cc1OC (stereo not drawn) | 1.6
CCn1nc(C(=O)N2CCc3ccccc3C2)c2ccccc2c1=O | 0.1
CC(C)c1ccccc1NC(=O)c1ccco1 | 0.4
CCCn1c(/N=C/c2cc(OC)ccc2O)nc2ccccc21 | i
COc1ccc(NC(=O)CN2CCN(C(=O)c3ccco3)CC2)c(OC)c1 | 1.6
CC(C)c1nc(SCC(=O)Nc2cccc(C(F)(F)F)c2)c2c(=O)n(C)c(=O)n(C)c2n1 | i
Cc1ccc(C(=O)OCC(=O)Nc2ccc3c(c2)OCO3)o1 | i
O=C(COc1cc(Cl)c(Cl)cc1Cl)Nc1ccncc1 | i
O=C(C1CCC(CNS(=O)(=O)c2cccc3nsnc23)CC1)N1CC=C(c2ccccc2)CC1 (stereo not drawn) | 1.6
OCCCN1c2ccccc2Nc2nnc(-c3ccccc3)cc21 | i
Cc1cc(=O)[nH]c(Cc2ccc(OC(C)C)cc2)n1 | i
CSc1ccc(S(=O)(=O)Nc2c(C)cccc2C)cc1 | 0.7
CCOC(=O)N1CCN(C(=O)Cc2ccc(-n3c(=S)[nH]c4ccccc4c3=O)cc2)CC1 | i
COc1ccc(OC)c(/C=N/N(C)c2ccccc2)c1 | i
COc1cc2nc(SCC(=O)NCCc3ccccc3)n(Cc3ccco3)c(=O)c2cc1OC | i
Cc1ccc(CCN2CC(C(=O)NCCCOC(C)C)CC2=O)cc1 (stereo not drawn) | 1.2
Cc1nn(C)c(Cl)c1NC(=O)OCc1ccc(F)cc1 | 0.1
O=C(Oc1ccc(-c2ccccc2)cc1)N1CCOCC1 | 0.9
Cc1cc(C(F)F)n2ncc(C(=O)NCc3ccccc3C(F)(F)F)c2n1 | 0.1
CCN1CCN(Cc2cc(OC)c(OC)cc2[N+](=O)[O-])CC1 | 2.1
O=C1C2Sc3[nH]c(=O)sc3C(c3ccccc3)C2C(=O)N1c1ccc(Cl)cc1 (stereo not drawn) | i
CCCn1c(SCC(=O)Nc2ccc3c(c2)OCCO3)nnc1-c1ccco1 | i
CC1(C)NC(=O)N(CC(=O)OCC(=O)Nc2cccc(F)c2)C1=O | i
COc1ccc(-c2nc(N)ncc2Oc2ccccc2Br)c(O)c1 | 1.5
COc1cccc(N(C(=O)c2cnccn2)C(C(=O)NC2CCCCC2)c2ccc(Cl)cc2)c1 (stereo not drawn) | i
NC(=O)C1(NC(=O)[C@@H]2CC3(CC(c4cccc(NC(=O)[C@@H]5CCC(=O)N5)c4)=NO3)CN2C(=O)Cc2ccc(Cl)cc2)CC1 (stereo partly drawn) | 0.2
O=C(CN1CCN(c2ccccn2)CC1)NCc1cccs1 | i

Additional compounds follow:
structure | H5N1 antiviral
COC(=O)CCC(=O)Nc1cccc(C(=O)Nc2cccc(Cl)c2)c1 | i
CCOC(=O)N1CCN(C(=O)c2cc(Cl)c(Cl)cc2C(=O)O)CC1 | 0.6
CCCn1nc(Oc2nc(NCC)nc(NCC)n2)ccc1=O | 0.5
CCOC(=O)CNc1c(-c2ccc(O)cc2)nc2ccccn12 | i
O=C1NC(c2ccccc2)(C(F)(F)F)SC2=CCCCCN12 (stereo not drawn) | i
COCc1c(Br)c(C)nc(OCC(=O)O)c1C#N | 0.5
Nc1ccc2nc(-c3ccc(Cl)cc3)[nH]c2c1 | i
Cc1ccc(OCC(=O)Nc2ccccc2-c2ccccc2)cc1 | 6.4
CCOC(=O)C1C(=O)OC2(CCCCC2)C1C(=O)OCC (stereo not drawn) | 0.8
COc1cccc(C=NCCNC(=O)c2nonc2N)c1O | i
Cc1ccc(OCC(=O)NCCN2CCCC2)cc1 | 1.8
O=C(c1ccc2c(c1)OCO2)N(c1ccccc1)C1C=CS(=O)(=O)C1 (stereo not drawn) | i
O=C1NC(=O)/C(=C\c2ccc(Sc3ccc(Cl)cc3)o2)N1 | i
CC(/C=C/c1ccccc1)=N\NC(N)=S | i
CCOC(=O)N1CCN(C(=O)C2CCCN(S(C)(=O)=O)C2)CC1 (stereo not drawn) | i

In a second layout: results already given
COC(=O)CCC(=O)Nc1cccc(C(=O)Nc2cccc(Cl)c2)c1
- H5N1 antiviral: i

CCOC(=O)N1CCN(C(=O)c2cc(Cl)c(Cl)cc2C(=O)O)CC1
- H5N1 antiviral: 0.6

CCCn1nc(Oc2nc(NCC)nc(NCC)n2)ccc1=O
- H5N1 antiviral: 0.5

Continuation:
structure | H5N1 antiviral
Cc1cc(C)cc(Nc2cc(C)nc3nc(C)nn23)c1 | 0.7
Cc1n[nH]c(=S)c2nn(-c3ccccc3)c(C)c12 | i
CN1C(=O)C(O)(CC(=O)c2ccc(F)cc2)c2cc(Br)ccc21 (stereo not drawn) | i
CCOC(=O)C(O)(c1ccc(N(CC)S(=O)(=O)c2ccc(C)cc2)cc1)C(F)(F)F (stereo not drawn) | i
O=c1c2ccc([N+](=O)[O-])c3cccc(c32)c2nc3ccccc3n12 | 0.3
Fc1ccc(NCc2nnc(SCc3nnc(-c4ccccc4)o3)n2CC2CCCO2)cc1 (stereo not drawn) | 1.7
CCN(CC)c1ccc2c(c1)CCCN2 | i
Cc1nnc(NC(=O)CSCc2ccccc2)s1 | 0.7
CCCCOc1ccc(C(=O)Nc2ccncc2)cc1 | 0.7
COc1ccc(S(=O)(=O)NCCCCNS(=O)(=O)c2ccc(OC)cc2)cc1 | 1.3
CC(=O)c1ccc(N2CCN(c3ncc(C(F)(F)F)cc3Cl)CC2)cc1 | 0.4
CCc1nnc(NC(=O)[C@@H]2CCCN2S(=O)(=O)c2ccc3c(c2)OCCO3)s1 | i
O=C(CC1Oc2ccccc2NC1=O)NCCCN1CCOCC1 (stereo not drawn) | 0.4
COc1ccc(CC(=O)NC(C)(C)C)cc1S(=O)(=O)N1CCOCC1 | i
CCn1c(SCC(=O)NC(=O)NCc2ccco2)nnc1-c1cccs1 | 2.1
CCN(C(=O)CSc1nc2cc(C(=O)OC)ccc2c(=O)n1Cc1ccco1)c1cccc(C)c1 | 1.9
CC1CCc2c(sc3ncn4c(SCC(=O)NCc5ccco5)nnc4c23)C1 (stereo not drawn) | 0.6
COc1cc2c(cc1NC(=O)C(C)OC(=O)C1CC(=O)N(Cc3ccco3)C1)oc1ccccc12 (stereo not drawn) | 0.5
N#C/C(=C\c1c(N2CCC(C(N)=O)CC2)nc2ccccn2c1=O)S(=O)(=O)c1ccccc1 | 0.2
Fc1ccc(C2NC(=S)NC3=C2N2CCC3CC2)cc1 (stereo not drawn) | 0.7
Cc1oc2cc(O)ccc2c(=O)c1Oc1ccccc1 | i
CCN(CC)CC(=O)Nc1c(C)cc(C)cc1C | i
COC(=O)c1cccc(COC(=O)c2ccc(CS(=O)(=O)c3ccc(C)cc3)cc2)c1 | 0.2
CC(C)(C)C(=O)CN1CCN(C2c3ccccc3-c3ccccc32)CC1 | 0.6
Cc1ccc(NC(=O)COc2ccc(Br)cc2CO)cc1 | i
COc1ccc(C(=O)NCCc2nnc(SCC(=O)Nc3ccccc3C(C)C)n2C)cc1 | 1.1
O=C(O)CCCNS(=O)(=O)c1ccc(NCc2ccccc2)c(C(=O)O)c1 | i
Cc1cc(NC(=O)COC(=O)C2CCN(C(=O)c3ccc(Cl)cc3)CC2)no1 | 0.4
Cc1cc(NC(=O)c2ccc(S(=O)(=O)Nc3ccccc3)cc2)no1 | 0.1
CCCCn1c(N)c(N(CC)C(=O)c2ccc3c(c2)S(=O)(=O)c2ccccc2C3=O)c(=O)[nH]c1=O | 0.5

Brought forward from above: 3 compounds; new compounds follow.
structure | H5N1 antiviral
Cc1cc(NC(=O)COC(=O)C2CCN(C(=O)c3ccc(Cl)cc3)CC2)no1 | 0.4
Cc1cc(NC(=O)c2ccc(S(=O)(=O)Nc3ccccc3)cc2)no1 | 0.1
CCCCn1c(N)c(N(CC)C(=O)c2ccc3c(c2)S(=O)(=O)c2ccccc2C3=O)c(=O)[nH]c1=O | 0.5
O=C(Nc1ccc2nc(-c3cccs3)[nH]c2c1)c1cccs1 | 4.2
CC1=[N+]([O-])C(C)(C)CC(C)(C)c2ccccc21 | 1.3
CC(=O)Nc1cccc(-c2csc(Nc3cccc(C)n3)n2)c1 | 0.9
Cc1cccc(-c2nc(CSCC(=O)NCCCN3CCOCC3)c(C)o2)c1 | 0.4
c1ccc(Oc2cccc(OCCn3cncn3)c2)cc1 | i
CCOC(=O)c1ccccc1NC(=O)CSc1nnc(Cc2cccn2C)n1-c1ccc(F)cc1 | i
CCOCCCNC(=O)COc1ccc(OC)cc1 | i
CCOC(=O)c1c2c(c(=S)n(-c3ccccc3)c1N)CCC2 | i
CC1Cc2nc(SCC(=O)Nc3ccc(F)cc3)n(C)c(=O)c2S1 (stereo not drawn) | 2.5
CCC(C)NC(=O)C1CCC(=O)N1Cc1ccc(C)cc1 (stereo not drawn) | 0.1
CCOC(=O)C1=C(C)Nc2nc(SCC)[nH]c(=O)c2C1c1ccncc1 (stereo not drawn) | 1.3
NC(=O)c1cc(-c2ccccc2)nc(N2CCOCC2)n1 | i
O=c1oc2c(CN3CCOCC3)c(O)c(Cl)cc2c2c1CCCC2 | 0.4
Cc1cccc(-c2cc(C(=O)Nc3ccc4c(c3)OCCO4)c3ccccc3n2)c1 | i
Cc1ccc(Sc2cc(C(F)(F)F)nc(N(C)C)n2)cc1 | i
